Assay outcomes (PubChem)
YopH PTP inh = inhibitors of Yersinia enterocolitica YopH tyrosine phosphatase; fluorescence Ex485/Em525; inhibition, %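 (about 10 µM by stock and volumes)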; 0.16% of 140,000 active;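 active = inhibition of 50% or more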;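 note: controls were vehicle for no effect and minimum signal wells for full effect; inactives centre near -20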
RecA splice inh = inhibitors of M. tuberculosis RecA intein splicing; P9WHJ3; cell-free RecA intein splicing, fluorescence; inhibition, %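 (about 9 µM by stock and volumes)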; 0.75% of 290,000 active; AID 2221; in the data active = inhibition above about 30%; inconclusive = no clear call, values can overlap the other calls;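 note: 0% = vehicle wells and 100% = reference inhibitor control wells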
Target sequence (P9WHJ3 whole entry, looked up, canonical isoform): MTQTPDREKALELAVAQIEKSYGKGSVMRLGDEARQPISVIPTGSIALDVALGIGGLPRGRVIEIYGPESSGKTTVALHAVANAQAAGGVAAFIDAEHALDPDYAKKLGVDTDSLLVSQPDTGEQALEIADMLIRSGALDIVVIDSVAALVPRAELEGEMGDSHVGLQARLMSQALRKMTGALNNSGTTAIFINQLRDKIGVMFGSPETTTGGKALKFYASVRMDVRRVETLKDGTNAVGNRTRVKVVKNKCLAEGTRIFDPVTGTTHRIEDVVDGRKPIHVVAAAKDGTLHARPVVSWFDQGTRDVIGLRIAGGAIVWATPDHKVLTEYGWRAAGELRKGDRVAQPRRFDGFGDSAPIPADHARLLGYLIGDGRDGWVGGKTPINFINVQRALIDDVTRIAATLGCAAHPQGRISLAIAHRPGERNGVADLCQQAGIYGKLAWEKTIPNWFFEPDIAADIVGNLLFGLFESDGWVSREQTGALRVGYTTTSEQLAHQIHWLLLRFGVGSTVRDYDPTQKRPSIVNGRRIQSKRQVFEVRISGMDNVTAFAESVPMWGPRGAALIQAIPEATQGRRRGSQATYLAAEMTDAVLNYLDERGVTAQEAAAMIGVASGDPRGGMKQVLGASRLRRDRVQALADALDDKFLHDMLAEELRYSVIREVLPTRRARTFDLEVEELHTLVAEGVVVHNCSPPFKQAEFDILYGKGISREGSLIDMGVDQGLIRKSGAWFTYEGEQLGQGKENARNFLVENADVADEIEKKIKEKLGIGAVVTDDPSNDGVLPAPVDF
Mtb growth = M. tuberculosis H37Rv growth inhibitors, H37Rv strain (AID 1626); inhibition, % at 10 µM, or IC50 in µM where a hit was titrated; M. tuberculosis H37Rv growth inhibition; higher % means a stronger effect; 0.95% of 220,000 active;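 active = confirmed in a dose series; inconclusive = inhibition above 80% but not taken into the dose series; inactive = below 80% or under 30% at every dose of the series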;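 note: bacteria incubated seven days before Alamar blue readout; 0% = bacteria only wells and 100% = bacteria with antibiotic wells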
Arbovirus anti = antivirals against arbovirus infection | 0.37% of 200,000 active | arbovirus infection cell-based antiviral screen | inhibition, % at 10 µM;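 active = inhibition from about 30%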;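 note: bluetongue infection of BSR cells; cell survival read as ATP light after 72 h; 0% = infected wells without compound and 100% = uninfected wells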
Mtb bLac sens = beta-lactam sensitization of Mtb H37Rv. M. tuberculosis H37Rv growth with meropenem, percent inhibition; hits of this screen are not shown here. inhibition, % at 25 µM. 0.27% of 330,000 active;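 active = about 74% or more and at least 40 points above the plate without the antibiotic, then above 30% in a dose series; inconclusive = first-round hits that could not be retested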;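 note: growth measured after seven days incubation then overnight dye step; 0% = bacteria only wells and 100% = bacteria with antibiotic; twin plates without the antibiotic show which effects depend on it; some results filed as inactive read as strong as hits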
Arbovirus anti repeat = further read-out of Arbovirus anti, marked with its call; inhibition, %; measured here: 10K subset replicate screen; many hits read low in the repeat;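 first of two repeat runs on a subset; 0% = infected and 100% = uninfected wells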
Starred values were filed as active, the others as inactive; ? = inconclusive; · = no result given.

SMILES	YopH PTP inh	RecA splice inh	Mtb growth	Arbovirus anti	Mtb bLac sens	others
CCOC(=O)c1sc(NCC2CCCO2)nc1C (centres undefined)	-15.8	-0.1	-8.5%	-4.6	-2.1
CCOc1cc(-c2c(C#N)c(N)nc3c2CCCC3)ccc1O	-35.6	4.6	2.0%	-8.8	-0.2
CC(C)C[C@H](NC(=O)c1nc[nH]c1C(=O)N1CCC(C)CC1)C(=O)OC(C)(C)C	·	-2.6	-8.4%	·	-5.3
COc1ccc(N2CCN(S(=O)(=O)c3c(C(=O)N4CCOCC4)c(C)n(C)c3C)CC2)cc1	·	0.2	·	·	-20.8
C=CCNC(=O)NC(=O)COC(=O)/C(C#N)=C/c1ccc(OC)cc1	·	-1.0	0.8%	-5.5	1.7
Nn1cnnc1N/N=C/c1ccccc1C(F)(F)F	·	4.2	·	·	-7.1
Cc1ccccc1Cn1cc(/C=N/n2cnnc2)c2ccccc21	6.4	6.9	15.9%	1.6	75.7	Arbovirus anti repeat=9.7
CCOP(=O)(OCC)C(C)(C)NC(=O)Nc1ccc(Cl)c(Cl)c1	·	-0.4	68.8%	·	-10.7
Cn1cc(S(=O)(=O)N2CCOCC2)cc1C(=O)NCc1ccccc1Cl	·	2.8	·	·	0.5
Cc1cnc2c(c1)C(=O)c1ccccc1-2	·	-1.9	·	·	-3.4
COc1cc(C(=O)Nc2nccs2)cc(OC)c1OC	-28.0	-1.8	0.3%	-5.1	-14.4
COc1cc(CNCCN(C)C)ccc1OCc1c(F)cccc1Cl	·	0.8	5.4%	-15.4	4.0
CC(=O)N1CCCc2ccc(NS(=O)(=O)c3ccc(C)c(C)c3)cc21	·	1.7	·	·	6.4
COc1ccc(C(=O)N/N=C(\C)CC(=O)Nc2ccc3ccccc3c2)c(OC)c1	·	-0.2	·	·	89.9
CCc1ccc(NC(=O)CSc2nc3ccsc3c(=O)n2CCCCCC(=O)O)cc1	·	-0.6	-8.2%	2.7	4.5
COc1ccc(CNC(=O)N2CCN(c3ccc(F)cc3)CC2)cc1Cl	·	-6.3	10.1%	-0.1	-0.2
CCn1cc(S(=O)(=O)N2CCN(Cc3cccc(Cl)c3)CC2)cn1	·	-1.1	4.2%	3.2	-7.9
CC(C)(C)c1cc(C(F)(F)F)c(C#N)c(=O)[nH]1	-26.2	0.9	4.3%	29.2	1.5
CCn1c(=O)c2c3c(sc2n(C)c1=O)CCC3	-30.7	1.4	-5.2%	2.1	-1.6
Cc1ccc(O)c(CCc2ccccc2)n1	-29.5	0.7	2.9%	15.3	5.4
COc1cccc(C(c2sc3ncnn3c2O)N2CC(C)OC(C)C2)c1 (centres undefined)	-24.0	6.1	-0.7%	-2.0	-8.1	Arbovirus anti repeat=8.2
COc1ncnc2c1sc1nc(-c3ccccc3)c3c(c12)CCCC3	2.6	5.2	6.8%	9.4	-1.4
CC1(C(=O)OCC(=O)Nc2ccc(C(N)=O)cc2)CC1(Cl)Cl (centres undefined)	·	1.0	0.0%	5.0	-0.7
Cc1ccc(S(=O)(=O)NCCC(=O)NCC(=O)Nc2c(C)cccc2C)cc1C	·	5.9	·	·	-8.9
O=C(Nc1ccccc1Cl)c1cccc(NS(=O)(=O)c2ccccc2)c1	-25.4	·	-0.6%	-4.8	·
O=C(Nc1ccc(F)c(Cl)c1)N1CCCC1	·	-0.6	1.6%	5.6	0.8
O=C(CSc1nc2ccccc2c(=O)n1Cc1ccco1)NCc1ccco1	-18.6	4.4	-3.2%	0.6	1.7
COc1ccc2[nH]c(=O)c(CN(CC3CCCO3)C(=O)Nc3ccccc3)cc2c1 (centres undefined)	-43.0	-1.6	-0.6%	-3.1	-2.4
CCOC(=O)c1[nH]ncc1CN1CCCC(C(=O)c2cccc3ccccc23)C1 (centres undefined)	·	0.6	1.2%	1.8	0.9
S=c1[nH]nc(-c2ccc(Cl)cc2)n1-c1ccc(Cl)cc1	·	2.1	·	·	2.9
CN(C)S(=O)(=O)NCCNc1ccc(C(F)(F)F)cc1[N+](=O)[O-]	·	1.4	-11.0%	0.9	0.0
COc1ccc2[nH]c(C(=O)N(C)c3ccc(F)cc3F)cc2c1	·	1.0	-6.9%	·	15.7
CC1CCCCN1CCCNC(=O)C1CCN(c2nc3ccccc3o2)CC1 (centres undefined)	-17.8	0.2	-12.1%	3.4	-2.1	Arbovirus anti repeat=0.2
CC(=O)c1cccc(NC(=O)CCc2nnc3ccc(N4CCN(C)CC4)nn23)c1	·	-0.3	·	·	0.9
C=CCc1cc(OC)ccc1OCCOCCC(C(=O)OCC)C(=O)OCC	-18.1	4.1	-6.1%	-2.5	-2.9
O=C(NC1CCCN(CCc2ccccc2)C1)c1c(F)cccc1F (centres undefined)	·	0.5	·	·	4.7
CC(/C=C\c1ccccc1)=C/C(=O)O	·	-0.3	2.7%	·	15.1
CCOC(=O)C1CCN(c2nc(C)cc(C)c2C#N)CC1	·	-1.5	2.5%	-1.6	-4.6
CC1CCC(NCC(O)c2ccccc2)CC1 (centres undefined)	-16.4	0.9	0.5%	-0.3	-4.9
Cn1c(=O)c2c(nc(OCc3cccnc3)n2Cc2c(F)cccc2Cl)n(C)c1=O	-136.5	1.8	-3.2%	7.1	5.4
Cc1ccc(C)c(NC(=S)N2CCC(NC(=O)C3CCCCC3)CC2)c1	·	-0.5	·	·	1.8
COc1cc(C(C)=O)ccc1OCc1cc(C(=O)N(C)CCC2CCCCO2)no1 (centres undefined)	·	1.1	·	·	8.1
CCOC(=O)c1ccc(NC(=O)c2ccc(C)c(S(=O)(=O)N3CCOCC3)c2)cc1	-3.2	0.5	9.2%	32.6*	-3.4	Arbovirus anti repeat=0.0*
COc1ccc(CCN2CN(S(=O)(=O)c3ccc(OC)cc3)c3nc4ccccc4nc32)cc1	-36.5	-1.3	2.8%	-6.9	-4.2
Cc1cc(OC(=O)c2cc([N+](=O)[O-])ccc2Cl)c([N+](=O)[O-])c(=O)[nH]1	·	2.9	·	·	3.4
COc1ccc(/C=C2\CCCC3C2=NN(C(=O)COC(=O)CNC(=O)c2ccccc2)C3c2ccc(OC)cc2)cc1 (centres undefined)	1.3	-0.7	3.4%	-9.1	7.0
COC(=O)C1=C(C)N(Cc2ccc(C)cc2)C(=O)C1	-9.8	1.8	-0.5%	-0.3	-3.0
CN(c1ccccc1)S(=O)(=O)c1cccc(C(=O)NCCCN2CCCC2=O)c1	·	-0.3	·	·	-6.0
CCOC(=O)c1c(S(=O)(=O)NCC(=O)Nc2cccc(C)n2)c(C)n(C)c1C	·	-1.6	·	·	2.2
COc1ccc(N2C(=O)CC(N3CCN(c4ccccc4F)CC3)C2=O)cc1 (centres undefined)	3.0	0.7	-9.9%	-3.9	1.7
CCC(=O)NNC(=S)NC(=O)c1ccc(C)cc1	·	-0.1	?	-8.9	71.6
CC(=O)NS(=O)(=O)c1ccc(NC(=O)c2oc3c(Cl)cccc3c2C)cc1	·	4.5	1.4%	·	5.9
CCCNC(=O)C1CCC(CNS(=O)(=O)c2ccc3c(c2)N(C(C)=O)CCO3)CC1 (centres undefined)	·	-0.1	·	·	-1.8
Cc1cccc(/N=C/c2c(O)cc(C)oc2=O)n1	-49.4	-4.5	-3.0%	3.1	4.3
COc1ccc(N2CCN(C(=O)CN(c3ccc(OC)cc3)S(=O)(=O)c3ccccc3)CC2)cc1	·	-0.9	·	·	-15.8
CC(C)(C)C(=O)Nc1ccc(S(=O)(=O)Nc2nccs2)cc1	·	-1.0	·	·	3.5
O=C(c1cccc(Cl)c1)N1CCN(Cc2ccc3c(c2)OCO3)CC1	·	0.7	·	·	-2.6
O=C(NC1CC1)c1cc2cc(Br)ccc2s1	·	-0.1	·	·	-11.8
CC1Cc2nc(SCC(=O)Nc3nccs3)n(C)c(=O)c2S1 (centres undefined)	-12.8	0.9	0.7%	-1.9	-7.6	Arbovirus anti repeat=8.0
Cc1ccnc(NC(=O)CCC(=O)N(CC(=O)NC(C)(C)C)Cc2ccc3c(c2)OCO3)c1	·	0.8	·	·	-0.2

(listing goes on)
SMILES	YopH PTP inh	RecA splice inh	Mtb growth	Arbovirus anti	Mtb bLac sens	others
OC1(c2ccc(Br)cc2)CCNCC1	-26.6	-8.0	-10.0%	9.2	-5.5
CN(C)CCNC(=O)c1ccccc1-c1ccccc1	4.2	3.2	2.4%	10.9	-4.6
COc1cc(/C=C/C(=O)OCC(=O)Nc2ccc3c(c2)OCCO3)ccc1O	-8.0	0.9	14.2%	1.9	-2.7
CC(C)(C)c1ccc(C(=O)N2CCN(c3ncccn3)CC2)cc1	·	-0.8	·	·	3.4
COc1ccc(Cl)cc1NC(=O)CCS(=O)(=O)c1cc2c(cc1C)NC(=O)CO2	·	0.4	·	·	2.8
COc1cccc(CN(C)CC(=O)NNC(=O)c2ccc(Cl)cc2)c1	-18.6	-2.1	-0.2%	-1.9	-7.0
Cc1ccc(NC(=O)CCS(=O)(=O)c2ccc3c(c2)NC(=O)C(C)S3)cc1Cl (centres undefined)	·	-0.6	·	·	6.8
CCNS(=O)(=O)c1ccc(CCC(N)=O)cc1	·	-4.3	3.0%	6.3	4.4
COc1c2c(nc3occc13)C(CC=C(C)C)(OC)C(OC(C)=O)CC2 (centres undefined)	-16.6	0.3	-4.2%	1.7	-4.7
Cc1ccc(-n2cnc3c(sc4nc(N5CCOCC5)c5c(c43)CCCC5)c2=O)cc1	·	6.9	10.2%	·	61.2
CCC1CCCCN1Cc1ccc(OC)c(C)c1 (centres undefined)	-34.7	-0.5	-2.7%	0.0	-3.9
Cc1cccc(NC(=O)C2CCCN(C(=O)Nc3ccc(F)cc3)C2)c1 (centres undefined)	·	2.3	·	·	-8.7
O=C(CN1CCN(c2ccc(Cl)cc2)CC1)c1ccc2c(c1)OCO2	-26.5	0.3	5.0%	5.5	2.2
CCOc1ncccc1C(=O)OCc1cccc([N+](=O)[O-])c1	·	-2.3	-2.8%	-6.2	7.5
CN1C(=O)c2ccc(NC(=O)c3cccc4ccccc34)cc2C1=O	·	-1.9	·	·	-3.8
COC(=O)C1(C)NC(c2cccs2)C2C(=O)N(c3ccccc3F)C(=O)C21 (centres undefined)	-28.9	0.7	-1.1%	-1.6	-5.5

A portion of the library; count on the stated rates, not on these rows.
